Screens: PubChem BioAssay, National Center for Advancing Translational Sciences (NCATS)
Rango-impB inh – qHTS Assay for Inhibitors of Rango (Ran-regulated importin-beta cargo) - Importin beta complex formation | Rango CFP/YFP FRET sensor + importin beta, 45 min | Potency, µM (top dose mostly 92.2 µM), inactives show top-dose inhibition of complex formation | actives 0.031% (n = 340,000) | AID 540263, 2011; active = rising FRET ratio curve, often small or poorly fitted; inconclusive = mostly compound fluorescence or quenching in the first reads; inactive = flat curves in all reads;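 further: potency means the concentration at half of the fitted maximal effect; 0% = DMSO wells and 100% = buffer wells lacking importin beta; nearly all actives have a fitted effect of over 15% in size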
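Inhibition scored from the CFP 486 nm/YFP 530 nm FRET ratio 45 min after adding 0.125 microM importin beta to 50 nM Rango biosensor preincubated 5 min with compound (room temperature, PBS with DTT, Tween-20, BSA). No-importin wells as positive control.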
Rango dissoc inh – qHTS Assay for Inhibitors of RanGTP induced Rango (Ran-regulated importin-beta cargo) - Importin beta complex dissociation; Snurportin-1 (Homo sapiens) + GTP-binding nuclear protein Ran (Homo sapiens) + Importin …; Biochemical FRET Rango-importin beta, RanGTP-induced dissociation; Potency, µM (doses to about 46.1 µM), for inactives: at the highest dose activity change, negative = inhibition; actives 0.071% (n = 340,000); AID 540253, 2011; active means falling FRET ratio curve, often poorly fitted, with flat reads before Ran was added; inconclusive means other falling curves, or compound fluorescence or quenching; inactive means flat or rising ratio curve;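 further: potency means the concentration at half of the fitted maximal effect; % of control where 0% means no effect; nearly all actives have a fitted effect of over 45% in size; -100% = wells without RanGTP and RCC1; the record marks most hits as doubtful in a second field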
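Rango/importin beta premix (0.1/0.25 uM final), PBS + 1 mM DTT + 0.02% Tween-20 + 0.1% BSA; cpd 5 min RT; FRET pre-read; + RanGTP-RCC1 (0.6 uM Ran, 2 mM GTP, 0.2 uM RCC1); 45 min RT; FRET post-read, ex 430, em 486/530 nm.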
GLA inh pH 4.5 – qHTS Assay for Inhibitors of Human alpha-Galactosidase at pH 4.5; Alpha-galactosidase A (Homo sapiens), P06280; purified enzyme, 4-MU-alpha-Gal fluorescence, pH 4.5; activity change, negative = inhibition, % at 105 µM; 230,000 tested, under 10 active; AID 1467, 2008; inconclusive = small, poorly fitted or top-dose-only inhibition, or a rising curve; inactive = flat fitted curve, though single readings scatter; no compound was filed as active;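 further: 0% = full activity with enzyme and -100% = basal without enzyme; dose as in the result columns while the protocol names 77 µM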
Target sequence (P06280 whole entry, looked up): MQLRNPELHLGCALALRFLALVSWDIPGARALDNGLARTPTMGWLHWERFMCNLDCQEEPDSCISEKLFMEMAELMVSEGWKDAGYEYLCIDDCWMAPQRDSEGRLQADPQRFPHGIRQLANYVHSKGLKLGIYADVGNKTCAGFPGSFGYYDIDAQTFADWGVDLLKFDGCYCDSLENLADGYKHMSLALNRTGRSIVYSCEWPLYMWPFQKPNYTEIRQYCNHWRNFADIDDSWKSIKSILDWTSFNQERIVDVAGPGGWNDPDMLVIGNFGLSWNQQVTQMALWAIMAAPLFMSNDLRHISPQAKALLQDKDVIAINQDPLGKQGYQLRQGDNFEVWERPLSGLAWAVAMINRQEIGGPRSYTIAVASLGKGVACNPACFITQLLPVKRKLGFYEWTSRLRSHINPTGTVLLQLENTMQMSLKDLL
miR-21 FLuc – qHTS Assay for Modulators of miRNAs and/orActivators of miR-21; HeLa miR-21 FLuc reporter, luciferase, 48 h; Potency, µM (titrated, usually from 38.3 µM), inactives show at the top dose reporter change, positive = more light; 340,000 tested, under 10 active; AID 2288, 2010; active = well fitted rising curve with a large enough effect; inconclusive = small, poorly fitted or top-dose-only effect; inactive = no such curve, though single readings can be large or run the other way;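 further: % of control where 0% means no effect; miR-21 action dims this reporter so a rising signal means less miR-21 action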
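Compounds were titrated across several concentrations (up to approximately 40 uM) and incubated 48 hours with HeLa miR-21-FLuc reporter cells (miR-21 target sequence downstream of FLuc, endogenous miR-21). Readout was firefly luciferase luminescence after lytic detection reagent.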
Starred values were filed as active, the others as inactive.

What do the screens show for `Fc1ccc(-n2c(-c3ccc4ccccc4n3)n[nH]c2=S)cc1Cl`?
Rango-impB inh: -2.7%; Rango dissoc inh: -1%; GLA inh pH 4.5: -3; miR-21 FLuc: -7%

How did Cc1ccc(C(=O)NC(=S)Nc2cccc3c(C)cc(C)nc23)cc1 do in these assays?
Rango-impB inh: 5.1%; Rango dissoc inh: 0%; GLA inh pH 4.5: -3; miR-21 FLuc: -13%

How did COc1cccc(NC(=O)COC(=O)c2ccc3c(c2)OCO3)c1 do in these assays?
Rango-impB inh: -2.3%; Rango dissoc inh: -1%

Results for Cc1cc(C(=O)N/N=C/c2ccc(OCc3ccccc3)cc2)c(C)o1 ?
Rango-impB inh: 0.1%; Rango dissoc inh: 4%; GLA inh pH 4.5: -7; miR-21 FLuc: -19%

How did O=C1/C(=C\c2ccccc2)CCc2c1[nH]c1ccccc21 do in these assays?
Rango-impB inh: inconclusive; Rango dissoc inh: -16%; GLA inh pH 4.5: -3; miR-21 FLuc: -15%

Results for CCN(CC)C(=O)[C@H]1C[C@H](CC(=O)NCCN2CCOCC2)C(=O)N2CCc3c([nH]c4ccc(Cl)cc34)[C@]12C ?
Rango-impB inh: -1.2%; Rango dissoc inh: -15%

What do the screens show for `Cc1nn(CC(=O)Nc2ccc(C(C)C)cc2)c(C)c1[N+](=O)[O-]`?
Rango-impB inh: 0.7%; Rango dissoc inh: inconclusive; GLA inh pH 4.5: -3; miR-21 FLuc: 0%

Results for O=C(Nc1ccc(O)cc1)/C(=C\C=C\c1ccccc1)NC(=O)c1ccccc1 ?
Rango-impB inh: 1.7%; Rango dissoc inh: 27%; GLA inh pH 4.5: -14; miR-21 FLuc: -2%

How did CCN1CCN(CCCNC(=O)C(=O)c2c(C)[nH]c3ccccc23)CC1 do in these assays?
Rango-impB inh: -3.2%; Rango dissoc inh: 0%; GLA inh pH 4.5: 11; miR-21 FLuc: -1%

Results for CCc1nnc(NC(=O)C(CC)CC)s1 ?
Rango-impB inh: -1.0%; Rango dissoc inh: 12%; GLA inh pH 4.5: -12; miR-21 FLuc: -2%

Results for O=C(O)c1cc(-c2ccccc2)on1 ?
Rango-impB inh: -0.3%; Rango dissoc inh: 12%; GLA inh pH 4.5: 13; miR-21 FLuc: 1%

Results for O=C(O)c1ccc(C(=O)Nc2ccc(F)cc2)cc1 ?
Rango-impB inh: 5.8%; Rango dissoc inh: -11%

How did O=C1CCC(C(=O)N2CCc3c(Cl)cccc3C2)CN1CCCN1CCOCC1 (configuration not stated) do in these assays?
Rango-impB inh: 2.1%; Rango dissoc inh: 22%; miR-21 FLuc: -5%

Results for O=C(NCc1nc2ccccc2[nH]1)c1ccccc1F ?
Rango-impB inh: -0.1%; Rango dissoc inh: 8%; GLA inh pH 4.5: -4; miR-21 FLuc: -34%

How did O=C(CNC(=O)c1ccc(S(=O)(=O)N2CCCC2)cc1)N/N=C/c1ccc(F)cc1 do in these assays?
Rango-impB inh: -2.9%; Rango dissoc inh: 9%; GLA inh pH 4.5: -13; miR-21 FLuc: -3%

Results for O=C(CN1CCOCC1)Nc1ncc(Cc2cccc3ccccc23)s1 ?
Rango-impB inh: -1.6%; Rango dissoc inh: -4%; GLA inh pH 4.5: -5; miR-21 FLuc: -1%

What do the screens show for `CCOC(=O)c1c(-c2ccccc2)nc2ccc(C)cn12`?
Rango-impB inh: -0.1%; Rango dissoc inh: 3%; GLA inh pH 4.5: 1; miR-21 FLuc: -38%

How did Cc1ncc(CN2CCC(CO)(Cc3ccccc3)CC2)s1 do in these assays?
Rango-impB inh: 3.5%; Rango dissoc inh: -13%; GLA inh pH 4.5: -15; miR-21 FLuc: -1%

Results for O=C(/C=C(\O)c1ccc(Cl)cc1)C(=O)NNC(=O)C(O)(c1ccccc1)c1ccccc1 ?
Rango-impB inh: 2.8%; Rango dissoc inh: -3%; GLA inh pH 4.5: -16; miR-21 FLuc: -3%

What do the screens show for `COc1ccc(/C=C(\C#N)C(=O)NCC2CCCO2)cc1OC` (configuration not stated)?
Rango-impB inh: 6.9%; Rango dissoc inh: 4%; GLA inh pH 4.5: -1; miR-21 FLuc: -6%

How did Cc1ccc(C(=O)NCCCNC(=O)COc2ccc(Cl)cc2)cn1 do in these assays?
Rango-impB inh: 1.2%; Rango dissoc inh: -10%; miR-21 FLuc: -1%

How did CC1CCCCC1NC(=O)c1c(O)nc2ccccn2c1=O (configuration not stated) do in these assays?
Rango-impB inh: 0.9%; Rango dissoc inh: 10%

What do the screens show for `O=c1cnn(Cc2ccc(Cl)c(Cl)c2)c2ccccc12`?
Rango-impB inh: 5.7%; Rango dissoc inh: -2%; miR-21 FLuc: -5%

How did CN1CCN(c2ccccc2NC(=O)c2cc3ccccc3o2)CC1 do in these assays?
Rango-impB inh: 0.4%; Rango dissoc inh: 1%; GLA inh pH 4.5: -10; miR-21 FLuc: -31%

Results for CCOC(=O)C(Oc1ccc2c(-c3ccccc3)cc(=O)oc2c1)c1ccccc1 (configuration not stated) ?
Rango-impB inh: -0.8%; Rango dissoc inh: -18%; GLA inh pH 4.5: -5; miR-21 FLuc: -11%

How did COc1ccc(CCn2c(=S)[nH]c3cc(C(=O)NCc4ccco4)ccc3c2=O)cc1OC do in these assays?
Rango-impB inh: -0.4%; Rango dissoc inh: -1%; GLA inh pH 4.5: -3; miR-21 FLuc: -4%

Results for CC(Sc1nnc(-c2cccnc2)o1)C(=O)NC1CCCC1 (configuration not stated) ?
Rango-impB inh: 1.4%; Rango dissoc inh: 1%

What do the screens show for `CCC(C(=O)NCc1ccccn1)n1c2ccccc2c2nc(=O)cc(C)n21` (configuration not stated)?
Rango-impB inh: 0.1%; Rango dissoc inh: -6%; miR-21 FLuc: -1%

Results for O=C(CCCNC(=O)/C(=C/c1ccccc1F)NC(=O)c1ccccc1)OCc1ccccc1 ?
Rango-impB inh: -2.1%; Rango dissoc inh: -3%; GLA inh pH 4.5: 2; miR-21 FLuc: -3%

What do the screens show for `COc1ccc2nc(SCC(=O)Nc3cc(OC)c(OC)cc3C(=O)O)c(C)cc2c1`?
Rango-impB inh: -2.1%; Rango dissoc inh: 24%; GLA inh pH 4.5: 4; miR-21 FLuc: -2%

How did Cc1ccc(S(=O)(=O)Nc2ccccc2N2CCCCC2)cc1 do in these assays?
Rango-impB inh: 0.2%; Rango dissoc inh: 0%

What do the screens show for `COc1cc(OC)c(C(=O)Oc2ccc3c(c2)OCO3)cc1OC`?
Rango-impB inh: -1.2%; Rango dissoc inh: -7%; GLA inh pH 4.5: 6; miR-21 FLuc: -26%

What do the screens show for `CC(C)=CC(O)C/C(C)=C/COc1ccc2ccc(=O)oc2c1` (configuration not stated)?
Rango-impB inh: inconclusive; Rango dissoc inh: -28%; GLA inh pH 4.5: -7; miR-21 FLuc: -7%

What do the screens show for `COc1cccc(OC)c1C(=O)Nc1ccc2c(c1)N(S(=O)(=O)c1cccs1)CCC2`?
Rango-impB inh: 0.3%; Rango dissoc inh: -2%; miR-21 FLuc: -1%

How did COc1ccc(/C=N/NC(=O)CCc2n[nH]c(=O)[nH]c2=O)cc1OC do in these assays?
Rango-impB inh: 5.0%; Rango dissoc inh: -8%; GLA inh pH 4.5: -6; miR-21 FLuc: 2%

What do the screens show for `O=C(COC(=O)c1cnccn1)Nc1ccc2c(c1)OCO2`?
Rango-impB inh: 0.7%; Rango dissoc inh: -7%; GLA inh pH 4.5: -9; miR-21 FLuc: -10%

An excerpt from above in order of length of the SMILES, highest first.
How did COc1ccc(CCn2c(=S)[nH]c3cc(C(=O)NCc4ccco4)ccc3c2=O)cc1OC do in these assays?
Rango-impB inh: -0.4%; Rango dissoc inh: -1%; GLA inh pH 4.5: -3; miR-21 FLuc: -4%

What do the screens show for `COc1cccc(OC)c1C(=O)Nc1ccc2c(c1)N(S(=O)(=O)c1cccs1)CCC2`?
Rango-impB inh: 0.3%; Rango dissoc inh: -2%; miR-21 FLuc: -1%

Results for CC(Sc1nnc(-c2cccnc2)o1)C(=O)NC1CCCC1 (configuration not stated) ?
Rango-impB inh: 1.4%; Rango dissoc inh: 1%

Carrying on.
What do the screens show for `COc1cccc(NC(=O)COC(=O)CC2CC3CCC2C3)c1` (configuration not stated)?
Rango-impB inh: -0.3%; Rango dissoc inh: 17%

Results for CCN(CC)S(=O)(=O)c1ccc(OC)c(NC(=O)c2cccc(C)c2[N+](=O)[O-])c1 ?
Rango-impB inh: 8.0%; Rango dissoc inh: 24%; GLA inh pH 4.5: -5; miR-21 FLuc: -3%

How did COc1ccc(C2=Nn3c(nnc3-c3ccccc3OC)SC2)cc1OC1CCOC1 (configuration not stated) do in these assays?
Rango-impB inh: -0.6%; Rango dissoc inh: 13%

What do the screens show for `CCCN1C(=O)c2ccc(C(=O)Nc3ccccc3C(=O)O)cc2C1=O`?
Rango-impB inh: -0.6%; Rango dissoc inh: 20%; miR-21 FLuc: -22%

What do the screens show for `COc1ccc(OCCN2CCCC2)cc1Nc1nnc(Cl)c(Nc2ccccc2S(C)(=O)=O)n1`?
Rango-impB inh: -4.9%; Rango dissoc inh: 16%

How did CCc1nnc(NC(=O)CSc2ncc(-c3ccccc3)[nH]2)s1 do in these assays?
Rango-impB inh: -3.7%; Rango dissoc inh: -15%; GLA inh pH 4.5: 6; miR-21 FLuc: -16%

How did COc1ccc(C)cc1N(CC(=O)Nc1ccc(S(=O)(=O)N2CCCC2)cc1)S(C)(=O)=O do in these assays?
Rango-impB inh: 3.9%; Rango dissoc inh: 1%; miR-21 FLuc: 1%

What do the screens show for `O=C(Nc1cccnc1)C1CCCN1S(=O)(=O)c1ccc(Cl)c(Cl)c1` (configuration not stated)?
Rango-impB inh: 0.8%; Rango dissoc inh: -12%; GLA inh pH 4.5: 3; miR-21 FLuc: -9%

What do the screens show for `COc1cc(Cn2c(-c3ccc(O)c(OC)c3)nc3ccccc32)ccc1O`?
Rango-impB inh: 0.4%; Rango dissoc inh: 39%; GLA inh pH 4.5: 1; miR-21 FLuc: 9%

Results for CCCc1nnc(NC(=O)C(=O)NCCN(CC)CC)s1 ?
Rango-impB inh: -1.3%; Rango dissoc inh: 4%; GLA inh pH 4.5: 4; miR-21 FLuc: 4%

What do the screens show for `Cc1ccccc1OCC(=O)NCCC(=O)O`?
Rango-impB inh: -6.7%; Rango dissoc inh: 6%; GLA inh pH 4.5: 12; miR-21 FLuc: -3%

Results for CCOC(=O)CCC(NC(=O)c1ccc(NCN2C(=O)CCC2=O)cc1)C(=O)OCC (configuration not stated) ?
Rango-impB inh: -2.1%; Rango dissoc inh: -5%; GLA inh pH 4.5: -11; miR-21 FLuc: -3%

Results for CCN(CC)S(=O)(=O)c1cc(Cl)ccc1OC ?
Rango-impB inh: 0.3%; Rango dissoc inh: 18%; GLA inh pH 4.5: 5; miR-21 FLuc: -12%

How did COCCNC(=O)C1CCC(=O)N1S(=O)(=O)c1ccc(C)cc1 (configuration not stated) do in these assays?
Rango-impB inh: 1.1%; Rango dissoc inh: 43%; miR-21 FLuc: 0%

Results for CN(CCc1cn[nH]c1)Cc1nc(C(c2ccccc2)c2ccccc2)no1 ?
Rango-impB inh: 0.2%; Rango dissoc inh: -14%; GLA inh pH 4.5: 4; miR-21 FLuc: -8%

How did CCN(C(=O)C(C)OC(=O)C1C(C(=O)OC)=C(C)NC(C)=C1C(=O)OC)c1ccccc1 (configuration not stated) do in these assays?
Rango-impB inh: inconclusive; Rango dissoc inh: inconclusive; GLA inh pH 4.5: -2; miR-21 FLuc: 0%

Results for CC1CC(C)CN(S(=O)(=O)N2CCCC(C(=O)NC3CCCCC3)C2)C1 (configuration not stated) ?
Rango-impB inh: -3.2%; Rango dissoc inh: inconclusive; miR-21 FLuc: 0%

Results for C[N+](C)(C)CCOC(=O)C1(c2ccccc2)CCCC1 ?
Rango-impB inh: -2.4%; Rango dissoc inh: 18%; GLA inh pH 4.5: 5; miR-21 FLuc: -1%

How did Cn1cc(C(N)=O)c2ccccc21 do in these assays?
Rango-impB inh: -1.3%; Rango dissoc inh: 1%; miR-21 FLuc: -1%

Some of the compounds tested (hit frequency here may not be typical).
